Compound activity: PubChem, National Center for Advancing Translational Sciences (NCATS)
VDR inhibitor: inhibitors of human vitamin D receptor. AID 504847. Potency, µM, inactives show max response, negative = inhibition, actives largely listed as inhibitors. VDR-SRC2-3 peptide fluorescence polarization, 2 h. 400,000 compounds, 0.93% hits. P11473; active = well fitted inhibition curve with a large enough effect; inconclusive = small, poorly fitted or top-dose-only effect, or another doubt; inactive = no such curve, though single readings can be large or run the other way; also: series mostly up to about 120 µM
Target sequence (P11473 whole entry, looked up): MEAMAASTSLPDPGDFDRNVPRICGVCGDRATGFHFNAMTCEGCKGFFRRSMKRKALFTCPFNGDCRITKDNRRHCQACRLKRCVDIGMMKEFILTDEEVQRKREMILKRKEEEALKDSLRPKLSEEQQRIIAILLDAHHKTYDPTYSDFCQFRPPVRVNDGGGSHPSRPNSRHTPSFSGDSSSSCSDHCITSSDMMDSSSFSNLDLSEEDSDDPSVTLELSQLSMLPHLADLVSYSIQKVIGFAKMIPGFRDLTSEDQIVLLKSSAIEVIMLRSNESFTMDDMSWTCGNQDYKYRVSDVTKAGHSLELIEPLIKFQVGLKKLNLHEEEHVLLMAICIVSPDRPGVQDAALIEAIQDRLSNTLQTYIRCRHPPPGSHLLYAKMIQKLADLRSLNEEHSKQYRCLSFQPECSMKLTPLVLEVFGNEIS
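After 23 nl compound addition and a short centrifugation, plates sat for 2 hours at ambient temperature; polarization of fluorescence then indicated loss of VDR binding to peptide SRC2-3.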
Active calls of the source: *; ? = inconclusive; [ ] = remark or other dose. % is scaled to controls: 0 for no effect and ±100 for the full control effect; potency is read from the fitted curve at half-maximal effect.

SMILES	VDR inhibitor
Cc1cccc(-n2c(O)c(C=NCCCN3CCOCC3)c3ccccc3c2=O)c1	1%
Nc1nnc(SCc2ccccc2)n1-c1ccccc1	-9%
CC1(C)OC2C(O1)[C@@H](CO)O[C@H]2n1cnc2c(N)ncnc21 (stereo not given in full)	-18%
Cc1ccc(-c2nc(CS(=O)(=O)CC(=O)Nc3cc(C)ccc3C)c(C)o2)cc1	-3%
O=C(CN1CCN(C(=O)c2ccco2)CC1)Nc1cc(C(F)(F)F)ccc1Cl	13%
Cc1ccc(CCNC(=O)c2ccc(Nc3nc4ccccc4n4nnnc34)cc2)cc1	13%
CCN(C(=O)COC(=O)c1c(-c2ccccc2)noc1C)c1c(N)n(Cc2ccccc2)c(=O)[nH]c1=O	-16%
CCOC(=O)C(C)Sc1nc(N2CCOCC2)c2c(c1C#N)CC(C)(C)OC2 (stereo not given)	7%
COc1ccc(Cl)cc1-n1c(=S)sc2c(=O)[nH]c(SCC(=O)NCCC(C)C)nc21	-17%
OCCN=C1CCCc2c1[nH]c1ccc(Br)cc21	-7%
CCCOc1ccc(Oc2ccc(S(=O)(=O)N3CCN(C)CC3)cn2)cc1	0%
COc1ccc(CCNC(=O)c2cc(-c3cc(C)c(C)cc3O)n[nH]2)cc1OC	-6%
COc1ccc([N+](=O)[O-])cc1NC(=O)C1(c2ccc(OC)c(OC)c2)CCOCC1	-5%
Cc1ccc(-c2nc(NCCCO)c3ccccc3n2)cc1	8%
COc1cccc(-c2nc(NC3CCCC3)c3ccccc3n2)c1O	7%
CC(C)(C)C(=O)N1CCN(S(=O)(=O)c2ccc3c(c2)OCCCO3)CC1	16%
CCc1ccc(CNC(=O)C2COc3ccccc3C2)cc1 (stereo not given)	5%
CCCCCCOC(=O)Nc1ccc(S(=O)(=O)Nc2cccc([N+](=O)[O-])c2)cc1	-16%
Cc1cc(=O)oc2cc3c(cc12)OCO3	-29%
O=C(c1ccccc1)N1N=C(C(F)(F)F)CC1(O)c1ccccc1O (stereo not given)	-15%
Oc1[nH]c2ccccc2c1N=Nc1ccccc1Cl	-23%
COc1ccc(CN(CCN(C)C)c2ncccn2)cc1	4%
Cc1ccccc1NC(=O)C1CCCN1S(=O)(=O)c1cccc2cccnc12 (stereo not given)	2%
Cc1ccccc1OC(C)C(=O)Nc1ccc(S(=O)(=O)Nc2nccs2)cc1 (stereo not given)	-3%
CCOCCCn1c(SCC(=O)Nc2ccccc2OC)nc2ccccc2c1=O	-6%
Cc1cccc(NC(=S)NC2CCCCC2)n1	-26%
COc1cccc(N2CCN(c3cnc4ccccc4n3)CC2)c1	2%
Cn1c(N)c(C(=O)COC(=O)c2ccc(Br)o2)c(=O)n(C)c1=O	14%
CN1CCC(=NOc2ccc([N+](=O)[O-])cc2)CC1	-5%
CCCn1nc(C(=O)Nc2ccc3nc(C)sc3c2)c2ccccc2c1=O	4%
COc1ccc(N2CCN(C(=O)COC(=O)COc3ccc(C#N)cc3)CC2)cc1	2%
COCc1nnc(NS(=O)(=O)c2ccc(NC(C)=O)cc2)s1	18%
C[C@@H]1CN([C@H](C)CO)C(=O)c2cc(NC(=O)C3CCCCC3)ccc2O[C@@H]1CN(C)Cc1ccncc1	-4%
CN(CC(=O)Nc1ccc(Cl)c(C(F)(F)F)c1)C(=O)CCc1nc2ccccc2c(=O)[nH]1	0%
CC1CN(C(=O)N2CCC(C(=O)NCCCc3ccccc3)CC2)c2ccccc2O1 (stereo not given)	14%
COc1ccc(CN2CN(S(=O)(=O)c3ccccc3)c3nc4ccccc4nc32)cc1	14%
CCCNC(=O)c1oc2ccc3c(c2c1C)C(=O)CC(C)(C)O3	6%
CCOc1ccc(OCCC(=O)NNC(=O)c2cc(OC)c(OC)c(OC)c2)cc1	-10%
CCOC(=O)Cn1c(S(=O)(=O)Cc2cccc(F)c2)nc(-c2ccccc2)c1-c1ccccc1	13%
Cc1cc(C(=O)NC2CCCc3c2cnn3-c2ccc(C(C)(C)C)cc2)n[nH]1 (stereo not given)	1%
Cc1c(CNCC(C)c2ccccc2)c(C(=O)O)c(C)n1Cc1ccccc1 (stereo not given)	-14%
Cc1ccc(C(=O)Oc2c(S(=O)(=O)c3ccccc3)c(C)nn2-c2ccccc2)cc1	-1%
CCOc1ccc2c(c1)C(c1ccc(C)o1)=NNC(c1ccncc1)=N2	-9%
Cc1ccc(N2CCN(C(=O)C3CCN(S(=O)(=O)c4ccc5c(c4)oc(=O)n5C)CC3)CC2C)cc1 (stereo not given)	-5%
CCOC(=O)C(=CNc1ccc2c(c1)CCN2C(C)=O)C(=O)OCC	-2%
O=C(O)C1CCN(C(=O)OCc2ccccc2)CC1	6%
CC1CCN(S(=O)(=O)c2ccc3nc(NCc4ccc(N(C)C)cc4)ccc3c2)CC1	-2%
O=C(c1cnn2c(C(F)(F)F)cc(-c3ccccc3)nc12)N1CCOCC1	-6%
CCc1nc(C)cn1S(=O)(=O)c1ccc(Cl)c(Cl)c1Cl	-13%
CCCSc1nnc2n(-c3ccc(OC)cc3)c(=O)c3c4c(sc3n12)COC(C(C)C)C4 (stereo not given)	1%
Cc1ccc(S(=O)(=O)N2C=CC(C(F)(F)F)=NCC2)cc1	-9%
O=C(O)c1ccccc1SC1CC(=O)N(c2ccc3c(c2)OCO3)C1=O (stereo not given)	-21%
CCC(=O)N1CCN(c2nnc(-c3ccccc3)c3ccccc23)CC1	-19%
COc1cc(-c2nc3cnccn3c2Nc2ccc(C)cc2)ccc1O	1%
CN(C)S(=O)(=O)c1cccc(NC(=S)N2CCCCC2CO)c1 (stereo not given)	8%
COc1ccc(C(=O)Nc2ccc3nc(N4CCCCC4)cc(C)c3c2)c(OC)c1	-11%
O=C(O)c1cc(O)ccc1O	3%
O=C(CN1CCC(NC(=O)c2ccc(Br)cc2)CC1)NCc1cccs1	-8%
COc1ccc(C(=O)NC(=S)Nc2ccc(S(=O)(=O)Nc3cc(C)on3)cc2)cc1OC	-11%
COC(=O)C1=C(Nc2ccc(C)cc2)C=C(C)C(C(=O)OC)C1c1ccc(F)cc1 (stereo not given)	-9%

Further records follow.
SMILES	VDR inhibitor
Cc1ccc(NC(=O)CN(C)C(=O)c2cc(C)on2)cc1	?
Cn1cccc1C(=O)NC(=O)COC(=O)CNS(=O)(=O)c1ccc(Br)cc1	-4%
COc1ccc(CNS(=O)(=O)c2cc(-c3cc(C)no3)ccc2C)cc1OC	-2%
COc1cc(/C=C/c2ccc3cccc(O)c3n2)cc(Br)c1OC	-14%
O=c1c2ccccc2c(/C=N/c2n[nH]c(CCCO)n2)c(O)n1-c1ccccc1Cl	-9%
CCC1(C)Cc2c(sc3nc(SCC(=O)O)[nH]c(=O)c23)CO1 (stereo not given)	-9%
CC(C)(C)Oc1ccccc1Nc1nc(NCCO)nc(N2CCCC2)n1	-25%
O=C(COC(=O)c1cccc(F)c1)Nc1ccc2c(c1)OCCO2	0%
CSc1ncccc1C(=O)N1CCCC(C(=O)c2ccc3ccccc3c2)C1 (stereo not given)	4%
O=C(/C=C/c1ccccc1)c1ccc2c(c1)OCO2	?
Cc1cc(NC(=O)CSCC(=O)OCC(=O)Nc2ccc(OC(F)F)cc2)no1	-10%
CCn1c(SCC(=O)NC2CCS(=O)(=O)C2)nnc1-c1ccccc1 (stereo not given)	?
CC(=O)C1=C(c2ccccc2)NC(=O)NC1c1cccs1 (stereo not given)	-1%
O=C(NCCCN1CCOCC1)c1ccc(NC(=O)C2COc3ccccc3O2)cc1 (stereo not given)	-15%
CCC(C)c1ccccc1NC(=O)C(C)Sc1n[nH]c(N)n1 (stereo not given)	-10%
CCOc1cc(S(=O)(=O)NC2CCCCC2)ccc1F	7%
CCOc1ccc(-c2cc(C(=O)NCc3ccc(OC)cc3)c3c(-c4ccc(F)cc4)[nH]nc3n2)cc1	7%
COc1ccccc1OCCn1cc(C(=O)C(C)C)c2ccccc21	-5%
Cc1nn(-c2nc(-c3ccco3)cc(C(F)(F)F)n2)c(C)c1Br	2%
COc1ccc(CNC(=O)C2CCCN(S(=O)(=O)c3ccc4c(c3)C(C)(C)C(=O)N4C)C2)cc1 (stereo not given)	-17%
Cc1cc(OCC(=O)N(Cc2sccc2C)C2CCS(=O)(=O)C2)ccc1Cl (stereo not given)	5%
CN(C(=O)c1ccc2c(c1)SC1=NS(=O)(=O)CCN12)C(c1ccccc1)c1ccccc1	-4%
COC(=O)c1ccc(/C=C/C(=O)c2cccc(OC)c2)cc1	22µM*
Cc1cc(C)cc(NC(=O)CCCN2C(=O)C(c3ccccc3)Oc3cccnc32)c1 (stereo not given)	-15%
CCOC(=O)c1c(C)[nH]c(C)c1S(=O)(=O)N(C)CC(=O)N1CCN(c2ccccc2)CC1	15%
CCOC(=O)Cn1ccc(-c2ccccc2)c(C#N)c1=O	12%
Cc1sc2ncnc(SCC(=O)Nc3ncccc3O)c2c1C	6%
CCNS(=O)(=O)c1ccc(CCC(=O)NC2CCCC2)cc1	-10%
CC1(C)OC2C(CO)OC(n3cnc4c(=S)nc[nH]c43)C2O1 (stereo not given)	4%
On1c(-c2ccc(Cl)cc2)nc2ccccc21	-2%
C/C(=N\NC(=S)Nc1ccc(C(C)C)cc1)c1ccc2c(c1)OCO2	-21%
CCn1c(CN2CCCCC2)nc2cc(NC(=O)c3ccccc3[N+](=O)[O-])ccc21	6%
O=C(O)C1CCN(C(=O)CSc2nnc(-c3ccccc3)o2)CC1	-9%
O=C(COCc1cc(-c2ccc(F)cc2)on1)Nc1cc(Cl)ccc1O	4%
C=Cc1ccc(Cn2nc(-c3ccccc3)ccc2=O)cc1	2%
O=C1CCc2cc(S(=O)(=O)NCCC(=O)N3CCN(c4cccc(Cl)c4)CC3)ccc2N1	42%[activator]
Cc1nc2ccc(NC(=O)[C@@H](NC(=O)c3c(F)cccc3F)C(C)C)cc2s1	9%
COc1cccc(C2/C(=C(/O)c3ccc4c(c3)CC(C)O4)C(=O)C(=O)N2c2nnc(C)s2)c1 (stereo not given)	-14%
FC(F)(F)COc1nc(OCC(F)(F)F)nc(N2CCN(c3ccccc3)CC2)n1	7%
O=c1cc(-c2cccc(O)c2)oc2ccc(O)cc12	-4%
COC(=O)c1ccc(NS(=O)(=O)c2ccc3c(c2)n(C)c(=O)c(=O)n3C)cc1	-8%

Some of the entries above in a different format.
| Structure | VDR inhibitor |
| --- | --- |
| CCOc1ccc(-c2cc(C(=O)NCc3ccc(OC)cc3)c3c(-c4ccc(F)cc4)[nH]nc3n2)cc1 | 7% |
| COc1ccccc1OCCn1cc(C(=O)C(C)C)c2ccccc21 | -5% |
| Cc1nn(-c2nc(-c3ccco3)cc(C(F)(F)F)n2)c(C)c1Br | 2% |
| COc1ccc(CNC(=O)C2CCCN(S(=O)(=O)c3ccc4c(c3)C(C)(C)C(=O)N4C)C2)cc1 (stereo not given) | -17% |
| Cc1cc(OCC(=O)N(Cc2sccc2C)C2CCS(=O)(=O)C2)ccc1Cl (stereo not given) | 5% |
| CN(C(=O)c1ccc2c(c1)SC1=NS(=O)(=O)CCN12)C(c1ccccc1)c1ccccc1 | -4% |
| COC(=O)c1ccc(/C=C/C(=O)c2cccc(OC)c2)cc1 | 22µM* |
| Cc1cc(C)cc(NC(=O)CCCN2C(=O)C(c3ccccc3)Oc3cccnc32)c1 (stereo not given) | -15% |
| CCOC(=O)c1c(C)[nH]c(C)c1S(=O)(=O)N(C)CC(=O)N1CCN(c2ccccc2)CC1 | 15% |
| CCOC(=O)Cn1ccc(-c2ccccc2)c(C#N)c1=O | 12% |
| Cc1sc2ncnc(SCC(=O)Nc3ncccc3O)c2c1C | 6% |
| CCNS(=O)(=O)c1ccc(CCC(=O)NC2CCCC2)cc1 | -10% |
| CC1(C)OC2C(CO)OC(n3cnc4c(=S)nc[nH]c43)C2O1 (stereo not given) | 4% |
| On1c(-c2ccc(Cl)cc2)nc2ccccc21 | -2% |
| C/C(=N\NC(=S)Nc1ccc(C(C)C)cc1)c1ccc2c(c1)OCO2 | -21% |
| CCn1c(CN2CCCCC2)nc2cc(NC(=O)c3ccccc3[N+](=O)[O-])ccc21 | 6% |
| O=C(O)C1CCN(C(=O)CSc2nnc(-c3ccccc3)o2)CC1 | -9% |
| O=C(COCc1cc(-c2ccc(F)cc2)on1)Nc1cc(Cl)ccc1O | 4% |
| C=Cc1ccc(Cn2nc(-c3ccccc3)ccc2=O)cc1 | 2% |
| O=C1CCc2cc(S(=O)(=O)NCCC(=O)N3CCN(c4cccc(Cl)c4)CC3)ccc2N1 | 42%[activator] |
| Cc1nc2ccc(NC(=O)[C@@H](NC(=O)c3c(F)cccc3F)C(C)C)cc2s1 | 9% |
| COc1cccc(C2/C(=C(/O)c3ccc4c(c3)CC(C)O4)C(=O)C(=O)N2c2nnc(C)s2)c1 (stereo not given) | -14% |

The list is partial; the hit share may differ from the screen's.
